Cruzain inh noDet: cruzain (T. cruzi) inhibition without detergent | purified cruzain, Z-FR-AMC fluorescence, no detergent | Potency, µM, inactives show max response, negative = inhibition, actives largely listed as inhibitors | actives 2.3% (n = 200,000); active = well fitted curve in the direction sought with a large enough effect; inconclusive = small, poorly fitted or top-dose-only effect, or another doubt; inactive = no such curve, though single readings can be large; an effect the other way counts as inactive or inconclusive;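 also: plate controls were enzyme without inhibitor for no effect and buffer without enzyme for full effect; nearly all actives have a fitted effect of over 40% in size; top concentration of the series not given in the record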
Target sequence (P25779 123-467 limits assumed): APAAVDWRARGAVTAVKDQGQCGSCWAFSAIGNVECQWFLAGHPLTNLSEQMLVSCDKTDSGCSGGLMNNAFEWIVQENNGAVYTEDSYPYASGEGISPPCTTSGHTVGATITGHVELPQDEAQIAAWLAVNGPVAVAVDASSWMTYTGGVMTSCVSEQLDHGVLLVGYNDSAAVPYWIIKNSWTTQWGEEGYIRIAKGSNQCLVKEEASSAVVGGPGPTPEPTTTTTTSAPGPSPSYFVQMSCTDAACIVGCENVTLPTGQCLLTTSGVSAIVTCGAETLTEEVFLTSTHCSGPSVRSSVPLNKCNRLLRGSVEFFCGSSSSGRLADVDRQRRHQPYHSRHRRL
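Detergent-free condition (0.00005% Triton X-100) in acetate buffer pH 5.5 with DTT. 1.5 nM enzyme and compound were pre-mixed 15 min, then 2 uM Z-FR-AMC substrate added; reaction progress from fluorescence change between first and third reads (60 s).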
SARS PLP yeast: inhibitors of SARS-CoV papain-like protease in yeast; actives 0.19% (n = 330,000); Potency, µM (series often up to 32.9 µM), for the others: at the top dose activity, positive = growth rescue; S. cerevisiae expressing SARS-CoV PLpro, growth rescue; control for the full effect not named in the record; also: 0% is about no effect; nearly all actives have a fitted effect of over 55% in size; growth read by luminescence after 48 h
RE007 growth inh: less growth of the S. pombe RE007 Vpr strain; S. pombe RE007 Vpr strain, BacTiter-Glo ATP luminescence, 24 h; control for the full effect not named in the record; AID 651644; Potency, µM (highest dose often 92.2 µM), for inactives: at the highest dose activity change, negative = less growth; actives 0.21% (n = 360,000); active = well fitted falling curve with a large enough effect; inconclusive = small, poorly fitted or top-dose-only effect; inactive = no such curve, though single readings can be large or run the other way;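 also: % is scaled to controls: 0 for no effect and ±100 for the full control effect; nearly all actives have a fitted effect of over 50% in size; the assay follows cell death caused by Vpr and the record does not say whether a fall means rescue or toxicity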
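Fission yeast RE007 carrying one integrated HIV-1 vpr copy, seeded at OD 0.01 in PMG+AL medium with 23 nL pinned compound. Grown 24 h at 30 degrees; viability read by BacTiter-Glo luminescence after 5 min.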
MARV entry inh: Marburg virus entry inhibition. Marburg virus pseudotyped entry inhibition, cell reporter; control for the full effect not named in the record; about a third of the inactives were read at about 46 µM. Potency, µM (highest dose often 37.8 µM), inactives show top-dose activity change, negative = inhibition, most hits filed as inhibitors. actives 1.8% (n = 300,000). AID 540276; active = well fitted inhibition curve with a large enough effect; inconclusive = small, poorly fitted or top-dose-only effect, or effect the other way; inactive = flat fitted curve, though single readings scatter; tested in HEK293 cells; about a fifth of its hits are not listed in these tables; also: % is scaled to controls: 0 for no effect and ±100 for the full control effect; luciferase read-out
StopGo reporter: FMDV 2A StopGo reporter, luciferase signal. human cells with a luciferase reporter of 2A StopGo recoding; control for the full effect not named in the record. Potency, µM (series often up to 57.9 µM), for inactives: top-dose signal change, negative = less light. actives 1.2% (n = 410,000); active = well fitted falling curve with a large enough effect; inconclusive = small, poorly fitted or top-dose-only effect; inactive = no such curve, though single readings can be large or run the other way; tested in HEK293T cells; also: % is scaled to controls: 0 for no effect and ±100 for the full control effect; nearly all actives have a fitted effect of over 45% in size; luciferase light after 4 h
LASV entry inh: inhibitors of Lassa virus binding or cell entry | Lassa virus pseudotype entry inhibition, cell reporter; control for the full effect not named in the record | Potency, µM (series often up to 37.9 µM), without a hit: at the top dose activity change, negative = inhibition, usual class: inhibitors | actives 1.2% (n = 300,000) | AID 540256; active means well fitted inhibition curve with a large enough effect; inconclusive means small, poorly fitted or top-dose-only effect, or effect the other way; inactive means flat fitted curve, though single readings scatter; tested in HEK293 cells; also: % is scaled to controls: 0 for no effect and ±100 for the full control effect; nearly all actives have a fitted effect of over 50% in size; luciferase read-out
Cruzain inh Det: inhibitors of Trypanosoma cruzi cruzain with detergent | P25779 | purified cruzain, Z-FR-AMC fluorescence, 0.01% Triton | Potency, µM, inactives show max response, negative = inhibition, usual class: inhibitors | actives 0.43% (n = 200,000); active = well fitted curve in the direction sought with a large enough effect; inconclusive = small, poorly fitted or top-dose-only effect, or another doubt; inactive = no such curve, though single readings can be large; an effect the other way counts as inactive or inconclusive;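 also: plate controls were neutral wells for no effect and buffer without enzyme for full effect; nearly all actives have a fitted effect of over 40% in size; top concentration of the series not given in the record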
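15 min RT preincubation of 1.5 nM cruzain with compound, then 2 uM Z-FR-AMC added; kinetic AMC fluorescence, 60 s delta. Triton X-100 0.01%, pH 5.5.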
NS1 inh: blocks influenza NS1 protein function; S. cerevisiae slowed by influenza A NS1, growth recovery by OD600; Potency, µM (highest dose often 46.1 µM), inactives show top-dose activity, positive = more growth; actives 0.4% (n = 270,000); AID 2326; also: actives are rising curves; nearly all actives have a fitted effect of over 50% in size
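Growth recovery, yeast-based: influenza A NS1 expressed in S. cerevisiae causes slow growth, and suppressors are detected by OD600. The parent strain without NS1 is used as positive control.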
The depositor's hits bear a star; ? = inconclusive; . = not tested or not shown; & = joins results of further samples; [ ] = remark or other dose. Unless noted, calls follow the shape of the dose curve; as a rule, active means well fitted rising curve with a large enough effect; inconclusive means small, poorly fitted or top-dose-only effect; inactive means no such curve, though single readings can be large or run the other way. Potency is read from the fitted curve at half-maximal effect.

no.	Compound	Cruzain inh noDet	SARS PLP yeast	RE007 growth inh	MARV entry inh	StopGo reporter	LASV entry inh	Cruzain inh Det	NS1 inh
1	COc1cccc(CNC(=O)COC(=O)c2ccc(Cl)s2)c1	.	2.5%	-6.3%	?	-3.0%	0.0%[46.1 µM]	.	.
2	Cn1c(C(=O)OC(C(=O)NC2CCCC2)c2ccncc2)cc2sccc21 (stereo not given)	10.7%	-4.8%	-5.3%	-29.1%	.	?	6.9%	-14.8%
3	CCc1nc2ccc(C(=O)NCc3cc(OC)ccc3OC)cc2nc1CC	-3.4%	.	.	.	-9.6%	-19.6%[46.1 µM]	7.5%	.
4	Cc1ccc(C#CC[N+](C)(C)CC#Cc2ccccc2)cc1	.	-0.5%	-7.0%	-20.3%	-2.2%	-14.1%	.	6.8%
5	COc1ccc(-n2c(O)c(/C=C3\C=Nc4ccc(Br)cc43)c(=O)[nH]c2=O)cc1	.	1.6%	14.2%	-4.8%[46.1 µM]	15.8µM*	19.3%	.	1.3%
6	COc1ccccc1-n1nc(C(=O)Nc2ccc3c(c2)OCO3)c2ccccc2c1=O	?	6.4%	-15.1%	11.5%	-3.1%	-5.3%	-1.2%	?
7	CCS(=O)(=O)N1Cc2ccccc2CC1C(=O)Nc1nc2ccccc2[nH]1 (stereo not given)	-20.9%	-1.4%	10.0%	?	24.3%	?	-8.4%	0.3%
8	Cc1ccc(/C=N/NC(=O)c2ccc3c(c2)OCCO3)s1	.	-2.3%	-17.5%	?	23.9%	?	.	-30.5%
9	CCCCCCC1C(C#N)=C(N)OC2=C1C(=O)CC(C)(C)C2 (stereo not given)	-8.3%	-2.7%	-0.8%	.	-19.7%	.	-12.5%	-8.6%
10	CCOC(=O)Cc1csc(NC(=O)CSc2nnnn2-c2ccc(C)c(C)c2)n1	10.7%	14.0%	-5.7%	5.3%	-23.7%	3.5%	-7.6%	8.0%
11	CC12CN3CCN(CC(C3)/C1=N\N=C1/C3CN4CCN(C3)CC1(C)C4)C2	1.6%	-14.1%	-3.8%	?	0.0%	-0.4%	-0.9%	-3.6%
12	Cc1ccccc1Nc1nc(N)nc(COC(=O)CCS(=O)(=O)c2ccccc2)n1	1.4%	-1.4%	3.8%	?	28.4%	-4.3%	0.0%	3.2%
13	N#CNC(=Nc1cccc(F)c1)SCc1ccccc1F	2.2%	9.7%	-3.2%	-1.5%	-29.2%	0.6%	-1.3%	8.3%
14	O=C(NCc1ccco1)C1CCCN(S(=O)(=O)c2cnc[nH]2)C1 (stereo not given)	7.6%	6.5%	3.7%	-4.5%	2.8%	.	4.0%	-0.8%
15	CCCC(=O)OCCNc1cc(SCc2ccco2)c2nonc2c1[N+](=O)[O-]	-29.9%	5.7%	0.2%	?	0.0%	?	25.1µM*	-4.5%
16	CCc1ccc(C(=O)COC(=O)c2ccccc2OC)cc1	.	-4.1%	-24.7%	?	12.0%	12.2%	.	-32.3%
17	CCc1nnc(NC(=O)CSCc2cc(=O)n3nc(C(C)C)sc3n2)s1	.	-7.4%	8.8%	.	?	.	.	14.8%
18	COc1cc2ccccc2cc1C(=O)Nc1cccc(-c2nc3cc(C)c(C)cc3o2)c1	-2.6%	.	.	.	-14.7%	?	0.2%	.
19	CCc1ccc(-n2c(C)n[nH]c2=S)cc1	.	0.3%	-10.2%	14.6%	-20.7%	9.9%	.	6.6%
20	CC(OC(=O)c1cccc(S(=O)(=O)N2CCCC2)c1)C(=O)NC1CCCCC1C (stereo not given)	.	0.4%	-16.0%	2.5%[46.1 µM]	-8.6%	18.2%	.	.
21	O=S(=O)(Cc1ccc(Cl)cc1)N1CCN(Cc2ccccc2)CC1	-20.4%	1.9%	2.2%	-5.6%	-19.4%	9.1%	-8.2%	0.0%
22	CCOc1ccc2sc(NS(=O)(=O)c3ccc(N)cc3)nc2c1	.	0.7%	18.3%	8.3%[46.1 µM]	74.6%[activator]	-7.5%	.	3.4%
23	Cc1ccc(C(=O)NCC(=O)OCc2cc(=O)n3ccsc3n2)cc1	-9.4%	.	.	.	-19.4%	-1.9%[46.1 µM]	-3.7%	.
24	OCC[C@@H]1C[C@@H](O)[C@H](O)[C@@]2(CCCc3ccccc3O2)O1	.	-2.6%	10.7%	.	-2.0%	.	.	-3.7%
25	Cc1ccc(C(=O)NC(O)C(Cl)Cl)cc1 (stereo not given)	-12.1%	0.4%	11.9%	5.1%	-1.9%	11.8%	-0.4%	10.2%
26	COc1ccc(N2CCN(c3oc(COc4ccc(Cl)cc4)nc3C#N)CC2)cc1	-7.9%	-11.2%	0.9%	?	0.4%	-4.4%	3.4%	14.1%
27	COc1ccc(CCNC(=O)c2ccc3c(=O)n(Cc4ccco4)c(=S)[nH]c3c2)cc1OC	27.6%	12.0%	1.5%	2.4%	?	18.8%	1.4%	?
28	O=C(Nc1ccccc1)c1cccc(-c2nnc(-c3ccccc3)o2)c1	-18.9%	9.4%	1.4%	14.1%	-5.8%	2.4%	-0.5%	0.6%
29	CN(C)S(=O)(=O)Nc1ccccc1F	.	0.7%	-5.8%	7.7%[46.1 µM]	-9.6%	-0.6%	.	6.5%
30	Cc1cc(Cl)ccc1NC(=S)NCc1ccccc1	3.3%	-0.9%	1.0%	-23.2%	45.7%[activator]	-29.6%	-0.5%	-11.5%
31	CCC1(CC)NC(=S)N(Nc2ccccc2)C1=O	-17.0%	-1.3%	1.7%	5.0%	.	-12.1%	-1.0%	8.2%
32	O=C1c2ccccc2C(=O)C1c1ccncc1	-15.9%	-8.5%	-0.2%	?	-54.9%	?	-6.2%	-4.6%
33	CC(=O)c1cccc(NC(=S)N2CCN(c3ccccn3)CC2)c1	.	-4.9%	2.8%	-0.2%	-22.3%	-17.0%	.	8.4%
34	C=CCN(C(=O)Cn1ncc2c1-c1cc(C)ccc1OC2)c1ccccc1	25.6%	6.3%	6.2%	.	37.0%[activator]	.	-4.5%	2.5%
35	COc1ccc(NC(=O)CCNC(=O)c2ccco2)cc1OC	.	-1.4%	-10.7%	2.3%[46.1 µM]	22.9%	3.5%	.	-39.3%
36	CC(=O)c1ccc(OCC(=O)Nc2ccccc2N2CCCC2)cc1	.	-5.1%	-17.0%	-34.6%[46.1 µM]	-3.9%	-15.5%[46.1 µM]	.	-10.2%
37	Fc1ccccc1COc1ccccc1/C=N/Nc1nc(N2CCCC2)nc(N2CCCC2)n1	?	-10.9%	-3.4%	?	0.3%	0.8%	-2.6%	19.0%
38	O=C(NC1CCSC1=O)c1cccc(Cl)c1 (stereo not given)	.	-0.4%	7.3%	-28.2%[46.1 µM]	-8.8%	17.5%[46.1 µM]	.	.
39	CCCn1c(=O)[nH]c(=O)c2c1nc(-c1ccc3c(c1)OCCO3)n2CCN1CCOCC1	-2.3%	-3.4%	-1.7%	-0.7%&-0.7%	7.0%	?	-6.4%	-1.5%
40	CC(C)(C)NC(=O)NC(=O)COC(=O)CNS(=O)(=O)c1ccc(Br)cc1Cl	.	0.8%	-6.7%	.	5.2%	.	.	-7.4%
41	CCn1nnnc1SCC(=O)c1cccc(OC)c1	3.4%	-5.2%	-0.5%	?	31.1%[activator]	0.5%	-1.0%	-23.0%
42	Cc1cc(C(=O)N2CCc3ccccc32)c2ccccc2n1	0.7%	-7.0%	20.7%	-9.8%	3.1%	12.7%	3.8%	-39.4%
43	COc1ccc(N(C(=O)c2ccccc2OC)C2C=CS(=O)(=O)C2)c(OC)c1 (stereo not given)	11.5%	4.7%	3.7%	23.9%	.	15.6%	3.9%	-0.1%
44	COc1ccc([N+](=O)[O-])cc1NCC(=O)c1ccc(C)cc1	.	3.3%	5.2%	?	3.8%	-9.1%[46.1 µM]	.	-3.5%
45	Cc1nc2ccc(NS(=O)(=O)c3ccc(F)cc3)cc2s1	.	-3.9%	-13.6%	-10.6%[14.2 µM]	3.8%	-8.0%	.	.
46	CC(C)(C)OC(=O)N1CCC[C@H]1c1nnc(SCC(=O)Nc2ccc(Br)cc2)o1	.	1.0%	0.1%	-7.9%[46.1 µM]	-10.9%	-18.8%	.	-3.2%
47	COc1cc(OC)c(NC(=O)c2cc(S(=O)(=O)N3CCCC3)cn2C)cc1Cl	-11.6%	.	.	.	20.9%	?	-0.9%	.
48	CCc1ccc(S(=O)(=O)N(C(C)=O)c2ccc3oc4c(c3c2)CCCC4)cc1	-8.2%	.	.	0.8%[46.1 µM]	-16.6%	6.6%[46.1 µM]	-4.9%	.
49	O=C(CCSc1nnc2ccccn12)Nc1ccc(F)cc1	-4.6%	3.6%	-12.7%	16.5%	-6.4%	41.5%[14.3 µM]	-0.4%	4.3%
50	Cc1cc(C(=O)COC(=O)c2ccc3c(c2)NC(=O)CS3)c(C)n1CCc1ccc(Cl)cc1	.	0.4%	-5.7%	-11.8%[46.1 µM]	-26.1%	13.6%[46.1 µM]	.	10.2%
51	CCOc1ccccc1CNC(=O)CCn1cccn1	-3.4%	.	.	.	-1.2%	7.4%[46.1 µM]	1.1%	.
52	O=C(c1ccc(F)cc1)C1CCN(S(=O)(=O)c2ccccc2)CC1	.	0.0%	-0.2%	15.1%[46.1 µM]	-9.5%	?	.	-3.8%
53	Oc1ccc(Nc2nc(NCC3CCCO3)c3ccccc3n2)cc1 (stereo not given)	-26.9%	-6.1%	-12.7%	?	-14.1%	?	-25.2%	-13.0%
54	CCCNC(=O)N(CCOC)CC1CCCN(C2Cc3ccccc3C2)C1 (stereo not given)	.	?	-17.9%	?	-3.7%	?	.	0.4%
55	Cc1cc(CNC(=O)c2ccc3nc(Cc4ccccc4F)oc3c2)nn1C	.	10.0%	5.3%	.	30.1%[activator]	.	.	-17.9%

Screening results from PubChem BioAssay.
